# Source: PubChem
# Vaccinia Venus = vaccinia inhibition (Venus reporter); Vaccinia virus Venus reporter expression, fluorescence; Potency, µM (doses to about 36.5 µM), for inactives: at the top dose activity change, negative = inhibition, usual class: inhibitors; hit rate 0.46% among 330,000; AID 720580; active means well fitted inhibition curve with a large enough effect; inconclusive means small, poorly fitted or top-dose-only effect; inactive means no such curve, though single readings can be large or run the other way; tested in A549 cells; note: nearly all actives have a fitted effect of over 30% in size; inactives centre near -10
# VACV mCherry inh = inhibitors of vaccinia virus infection (mCherry reporter signal). Potency, µM (highest dose often 36.5 µM), without a hit: at the top dose activity change, negative = inhibition, actives largely listed as inhibitors. Vaccinia virus mCherry reporter infection, fluorescence; about a quarter of the inactives have no number. hit rate 0.63% among 310,000; active = well fitted inhibition curve with a large enough effect; inconclusive = small, poorly fitted or top-dose-only effect; inactive = no such curve, though single readings can be large or run the other way; tested in A549 cells; note: nearly all actives have a fitted effect of over 35% in size; inactives centre near -10
# * hit, by the source's call; i = inactive; u = inconclusive; x = no result given; [ ] = another dose, or the depositor's remark. % is set by controls: 0 for no effect and ±100 for the full control effect; potency is the fitted concentration of half-maximal effect.
SMILES,Vaccinia Venus,VACV mCherry inh
O=C(NCc1ccccc1)C(=O)NCC(c1ccco1)S(=O)(=O)c1ccccc1 (stereo unspecified),0%,-10%
Cc1ccc(S(=O)(=O)NC(=NCc2ccccc2)c2ccc(F)cc2)cc1,-2%,-23%
O=C(O)C(c1cccs1)C1(O)CCCCC1 (stereo unspecified),5%,i
Cn1nnnc1SCc1ccc([N+](=O)[O-])cc1,-12%,-8%
COCCn1c(SC(C)C(=O)NC2CC2)nnc1-c1cccc(C)c1 (stereo unspecified),-16%,-3%
COc1ccc(C(C)(C)C)cc1NC(=O)c1ccc2ncsc2c1,-3%,6%
Cc1ccc(S(=O)(=O)N(CC(=O)N/N=C/c2ccc(F)cc2)c2cccc3cccnc23)cc1,-13%,i
Cc1sc2ncnc(N3CCC(C(=O)N(CC(C)C)c4nc5ccccc5s4)CC3)c2c1C,-13%,-15%
Cc1ccc(NS(=O)(=O)c2ccc(C(=O)NCc3ccccn3)cc2)cc1,-11%,-7%
COc1ccccc1Nc1cc(C(=O)NCCCN2CCOCC2)c2ccccc2n1,-4%,-15%
O=C(NNC(=O)c1ccccc1OCc1ccc(F)cc1)c1ccncc1,-11%,-12%
C/C=C/C(=O)N1CC2(CC(c3cccc(NC(=O)COc4ccc(Cl)cc4)c3)=NO2)C[C@@H]1C(N)=O (stereo partly specified),-9%,-18%
O=C(NCc1ccccc1Cl)c1cc(=O)[nH]c2ccc(S(=O)(=O)N3CCCCC3)cc12,-3%,i
CC(C)Oc1ccc(C(=O)Nc2ccc3oc(-c4ccncc4)nc3c2)cc1,-8%,-7%
Nc1ccc2nc(-c3ccccc3)sc2c1,-12%,-24%
COc1ccccc1C(c1nnnn1Cc1ccccc1)N1CCN(C2CCCC2)CC1 (stereo unspecified),-11%,i
CC1=C(C(=O)N2CCOCC2)CC(CC(=O)NCCCN(C)C)C(=O)N1Cc1ccc(C(C)(C)C)cc1 (stereo unspecified),-5%,4%
Cc1cc2nc(SCCOC(=O)Nc3ccc(Cl)cc3)nc(C)c2cc1C,3%,x
COc1cc(C2/C(=C(\O)c3ccc4c(c3)CC(C)O4)C(=O)C(=O)N2CCCn2ccnc2)ccc1O (stereo unspecified),-14%,-15%
CCCc1ccc(C#N)c(SC2CC(=O)N(c3ccc(OC)cc3)C2=O)n1 (stereo unspecified),5%,19%
Cc1cc(N=Cc2c(O)ccc3ccccc23)no1,-6%,-14%
O=C(NCCCN1CCOCC1)C(=O)NCc1ccccc1,2%,2%
CCCc1nn2c(=O)cc(COC(=O)c3ccc(NC(=O)C(C)Oc4ccccc4)cc3)nc2s1 (stereo unspecified),-16%,i
Cc1cc(Oc2ccc(C)c(Cl)c2)nc(SCC(=O)c2ccccc2)n1,-16%,-21%
COc1ccc(CCNC(=O)Cc2c(C)c3c(cc(C)c4c(C)coc43)oc2=O)cc1,3%,-10%
CCOCCc1nnc(N)s1,-4%,-21%
O=C(CCNC(=O)c1ccc([N+](=O)[O-])cc1)NCc1ccccc1,-11%,i
COCCN(C(=O)COC(=O)C1CCC(C(C)(C)C)CC1)c1c(N)n(Cc2ccccc2)c(=O)[nH]c1=O (stereo unspecified),u,-23%
O=C(CSc1nnnn1C1CCCCC1)NCc1cccc(C(=O)O)c1,-8%,-6%
COc1cc(C(=O)NCCN2C(=O)S/C(=C\c3cccs3)C2=O)cc(OC)c1OC,-14%,-16%
COc1ccc2c(c1)CC(C(=O)NCCN1CCN(c3cccc(C)c3C)CC1)CO2 (stereo unspecified),-16%,-16%
CCOC(=O)c1c(C)oc2cc(Br)c(OC(=O)N3CCOCC3)cc12,-27%,x
COc1cccc(NC(=O)N2CCCC2C(=O)NCc2ccco2)c1 (stereo unspecified),-16%,-12%
CC(=O)Nc1ccc(S(=O)(=O)NCCC(=O)NNC(=O)c2ccncc2)cc1,-5%,i
COc1ccc(OCC(=O)Nc2c(C(=O)N3CCN(c4ccccc4)CC3)oc3ccccc23)cc1,1%,-7%
O=C1Nc2ccccc2O/C1=C\c1ccccc1Br,-1%,i
O=C(CSc1nnc(-c2ccco2)n1Cc1ccco1)NCc1ccccc1,-25%,u
CC(=O)N1c2ccc(S(=O)(=O)NCC3CCC(C(=O)Nc4cccc(C)n4)CC3)cc2CC1C (stereo unspecified),3%,-4%
COC(C[C@H]1O[C@H]1[C@H](O)COCc1ccccc1)OC,0%,i
CC(C)(C)n1nnnc1C(c1ccncc1)N1CCN(C2CCCCC2)CC1 (stereo unspecified),-17%,-5%
COc1ccc(NC(=O)Nc2ccccc2C(=O)N2CCCC2)cc1,-6%,x
COc1ccc2[nH]c3c(c2c1)CCN1C(=O)C(CC(=O)NCCN2CCOCC2)C[C@H](C(=O)N(C(C)C)C(C)C)[C@@]31C (stereo partly specified),u,i
c1ccc(CNn2c(N3CCOCC3)nc3ccccc32)cc1,-5%,-13%
O=C(NCCCN1CCCC1)Nc1ccccc1[N+](=O)[O-],-9%,-13%
COc1ccc2ccccc2c1-c1sc(Nc2ccccc2)n[n+]1-c1ccc(F)cc1,u,-12%
NC(=O)CN1CCN(c2cccc(Cl)c2)CC1,-13%,-2%
CCOC(=O)N1N=C(c2ccc(C)cc2)CC1(O)C(F)(F)F (stereo unspecified),-21%,0%
COc1ccc(OC)c(-c2cc(C(=O)Nc3ccc(C)c(C)c3)no2)c1,0%,-12%
CCC(C)N(C(=O)CSc1nncn1C)C1CCS(=O)(=O)C1 (stereo unspecified),-2%,-13%
CCOc1ccc(-n2cccc2C=O)cc1,-5%,i
COc1ccc(S(=O)(=O)N2CCC(C(=O)NCC3CCCO3)CC2)cc1C (stereo unspecified),-16%,-14%
O=C(CSc1nnc(-c2ccc([N+](=O)[O-])cc2)o1)Nc1ccccc1,-3%,5%
COC(=O)c1ccc(CN(c2ccccn2)S(=O)(=O)c2ccccc2)cc1,-18%,-21%
CCN(CC)CC(C)CNC(=O)CN1C(=O)CSc2ccc(S(=O)(=O)N3CCOCC3)cc21 (stereo unspecified),-6%,-8%
CCOc1ccc(NC(=O)Cc2ccc(S(=O)(=O)N3CCOCC3)s2)cc1OCC,-23%,-6%
CCn1ncc(-c2csc(N)n2)c1C,-6%,-12%
CCC(C)NC(=O)CNC(=S)N(Cc1ccccc1F)C1CCCCC1 (stereo unspecified),-5%,-15%
CC(C)Cc1csc(NC(=O)c2ccc(F)cc2)c1C(=O)O,u,-22%
COC(=O)c1c(SC)nc2ccccc2c1OCc1cccc(C)c1,1%,-12%
COc1ccc(S(=O)(=O)N2CCOC2CNC(=O)C(=O)NCc2ccncc2)cc1C (stereo unspecified),-14%,i
# (more compounds)
SMILES,Vaccinia Venus,VACV mCherry inh
CC(=O)c1ccc(N2CCN(C(=O)c3ccc(S(=O)(=O)NCc4ccco4)cc3)CC2)cc1,-16%,i
CCCN1CNc2c(c(=O)[nH]c(=O)n2CCc2ccc(OC)c(OC)c2)C1,-10%,i
COC(c1ccccc1)c1nnc(CCC(=O)N(C)CCCC2CCCC2)o1 (stereo unspecified),-9%,-24%
CCOc1cc2nc3c4ccccc4n(C)c3nc2cc1OCC,-14%,i
Cc1ccc(C(C)C)c(OCC(=O)Nc2ccc(N3CCOCC3)cc2N2CCOCC2)c1,-15%,-13%
CCC(=O)Nc1cc(C)c(O)c(-c2nc3ncccc3o2)c1,-14%,-17%
N=C(N)SCc1cn(-c2ccccc2)nc1-c1ccc(Br)cc1,u,11µM*
CCN(CC)S(=O)(=O)c1cccc(C(=O)N/N=C/c2ccccn2)c1,-13%,-18%
CCOc1ccc(NC(=S)N2CCC(C(=O)c3ccc(F)cc3)CC2)cc1,-11%,-20%
CCN1CCN(CCNC(=O)c2cn(Cc3ccccc3F)nn2)CC1,-11%,-4%
COc1ccc(OC)c(NC(=O)c2cc3cc4ccc(C)cc4nc3s2)c1,-3%,-12%
CCN1C(=O)[C@H]2[C@@H](c3ccc(OC)cc3)N3C(=O)CN(Cc4ccccc4)C(=O)[C@@]3(C)[C@H]2C1=O,-3%,i
Cc1cc(C(=O)N2CCCC(N3CCN(c4ccc(F)cc4)CC3)C2)no1 (stereo unspecified),-20%,-17%
CCCN1CCC(NC(=O)c2cccc(Oc3ccccc3)c2)CC1,-30%,u
O=C(COC(=O)CCN=C1NS(=O)(=O)c2ccccc21)NNC(=O)c1ccccc1,-4%,-12%
Nc1nnnn1/N=C/c1cc(Br)ccc1O,-12%[7.34 µM],-6%[7.34 µM]
CCNC(=S)Nc1ccc(Oc2ccccc2)cc1,-3%,2%
CC(C)c1cnc2c(c1SCc1ccc([N+](=O)[O-])cc1)c(=O)n(C)c(=O)n2C,-12%,-19%
Cc1ccc2nc(-c3cccnc3)cc(C(=O)Nc3ccccc3[N+](=O)[O-])c2c1,-8%,i
COc1ccccc1N(C)S(=O)(=O)c1ccc(C)c(C(=O)N2CCCCCC2)c1,-19%,i
COc1ccc(-c2nn(-c3ccccc3C)cc2CNCc2cccnc2)cc1F,-6%,-10%
O=C1C=CC(=O)N1c1ccc(N2CCCCC2)cc1,16%,-10%
O=C(c1ccc2c(c1)N(Cc1ccccc1F)C(=O)c1ccccc1S2(=O)=O)N1CCOCC1,-2%,5%
Cn1cc(S(=O)(=O)N2CCCC2)cc1C(=O)NCc1ccccc1Cl,-6%,-2%
O=S(=O)(Nc1ccc(O)c(CN2CCCCC2)c1)c1ccccc1,18%,x
COc1cccc(NS(=O)(=O)c2ccc3[nH]cc(C(=O)NC(C)c4ccccc4)c(=O)c3c2)c1 (stereo unspecified),-3%[7.34 µM],-19%[7.34 µM]
O=C1NCCN1C(=O)N(c1ccccc1)c1ccccc1,-18%,-14%
COc1ccccc1NC(=O)CSc1nnc(-c2ccco2)o1,-12%,-20%
O=C(Nc1ccccc1N1CCCCC1)c1cccc(Cl)c1,-10%,-23%
Cn1c(=O)c2cc(S(=O)(=O)NC(C(=O)Nc3cccc(F)c3)c3ccccc3)ccc2n(C)c1=O (stereo unspecified),u,-7%
Cc1cc2[nH]c(=O)c(=O)[nH]c2cc1S(=O)(=O)N(C)C1CCCCC1,-10%,-19%
CCn1c(SCc2ccccc2)nnc1C1CCCCC1,-13%,i
CCOc1ccc(N(CC(=O)NCc2ccccc2)S(C)(=O)=O)cc1,-8%,x
O=C(COC(=O)C1CCN(S(=O)(=O)c2ccc3c(c2)OCCO3)CC1)Nc1ccc(C(F)(F)F)cc1,-11%,-12%
O=C(CSc1nnc(-c2cccnc2)o1)Nc1ccccc1F,-9%,i
COc1cccc(-c2cccc(NC(=O)C3CCN(Cc4nccs4)CC3)c2)c1,-6%,-11%
O=C(O)C(Cc1cn[nH]n1)=NO,-10%,-9%
O=C(c1ccncc1)N1CCN(S(=O)(=O)c2cccc([N+](=O)[O-])c2)CC1,-16%,i
CC(=O)N1c2ccc(S(=O)(=O)NCCC(=O)N3CCCC(C)C3)cc2CC1C (stereo unspecified),0%[7.34 µM],7%[7.34 µM]
COc1ccccc1NC(=O)COc1ccc(/C=N/n2cnnc2)cc1OC,-6%,-10%
CC(NC(=O)c1ccc(CS(C)(=O)=O)cc1)C1CC2CCC1C2 (stereo unspecified),-1%,-9%
COc1ccc(NC(=S)N/N=C/c2ccc(F)c(F)c2)cc1,-19%[7.34 µM],-21%[7.34 µM]
CCC(CC)CC1CN2CCc3cc(OC)c(OC)cc3C2CC1(O)CC (stereo unspecified),-10%,-6%
O=C(CN1CCN(c2ccc([N+](=O)[O-])cc2)CC1)Nc1nccs1,-19%,-2%
CN(C)CC1CCCCC1OC(=O)/C=C/c1ccccc1 (stereo unspecified),-5%,-16%
CCn1cc(C(=O)NCCc2ccccc2)c(=O)c2cc(F)c(N3CCN(C)CC3)cc21,-28%,u
Cc1ccc([N+](=O)[O-])cc1NC1CC(O)C(CO)O1 (stereo unspecified),-4%,-15%
Cc1ccc(NC(=O)C(C)OC(=O)c2n[nH]c3ccccc23)cc1 (stereo unspecified),-12%,-22%
COC(=O)Nc1nc2ccc(C(=O)c3cccs3)cc2[nH]1,u,u
CCN(Cc1ccncc1)Cc1ccc(Br)cc1,-7%,i

# Rewritten with two lines to a compound: part of the list above
# The line under a structure holds: Vaccinia Venus	VACV mCherry inh
O=C(NCc1ccccc1)C(=O)NCC(c1ccco1)S(=O)(=O)c1ccccc1 (stereo unspecified)
 : 0%	-10%
Cc1ccc(S(=O)(=O)NC(=NCc2ccccc2)c2ccc(F)cc2)cc1
 : -2%	-23%
O=C(O)C(c1cccs1)C1(O)CCCCC1 (stereo unspecified)
 : 5%	i
Cn1nnnc1SCc1ccc([N+](=O)[O-])cc1
 : -12%	-8%
COCCn1c(SC(C)C(=O)NC2CC2)nnc1-c1cccc(C)c1 (stereo unspecified)
 : -16%	-3%
COc1ccc(C(C)(C)C)cc1NC(=O)c1ccc2ncsc2c1
 : -3%	6%
Cc1ccc(S(=O)(=O)N(CC(=O)N/N=C/c2ccc(F)cc2)c2cccc3cccnc23)cc1
 : -13%	i
Cc1sc2ncnc(N3CCC(C(=O)N(CC(C)C)c4nc5ccccc5s4)CC3)c2c1C
 : -13%	-15%
Cc1ccc(NS(=O)(=O)c2ccc(C(=O)NCc3ccccn3)cc2)cc1
 : -11%	-7%
COc1ccccc1Nc1cc(C(=O)NCCCN2CCOCC2)c2ccccc2n1
 : -4%	-15%
O=C(NNC(=O)c1ccccc1OCc1ccc(F)cc1)c1ccncc1
 : -11%	-12%
C/C=C/C(=O)N1CC2(CC(c3cccc(NC(=O)COc4ccc(Cl)cc4)c3)=NO2)C[C@@H]1C(N)=O (stereo partly specified)
 : -9%	-18%
O=C(NCc1ccccc1Cl)c1cc(=O)[nH]c2ccc(S(=O)(=O)N3CCCCC3)cc12
 : -3%	i
CC(C)Oc1ccc(C(=O)Nc2ccc3oc(-c4ccncc4)nc3c2)cc1
 : -8%	-7%
Nc1ccc2nc(-c3ccccc3)sc2c1
 : -12%	-24%
